Bioassay records as filed in PubChem BioAssay.
Rango dissoc inh: prevents RanGTP from dissociating the Rango-importin beta complex. actives 0.071% (n = 340,000). Biochemical FRET Rango-importin beta, RanGTP-induced dissociation. Potency, µM (doses to about 46.1 µM), without a hit: at the highest dose activity change, negative = inhibition. AID 540253; active means falling FRET ratio curve, often poorly fitted, with flat reads before Ran was added; inconclusive means other falling curves, or compound fluorescence or quenching; inactive means flat or rising ratio curve;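 also: potency is read from the fitted curve at half-maximal effect; % of control where 0% means no effect; nearly all actives have a fitted effect of over 45% in size; -100% = wells without RanGTP and RCC1; the record marks most hits as doubtful in a second field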
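Rango/importin beta premix (0.1/0.25 uM final), PBS + 1 mM DTT + 0.02% Tween-20 + 0.1% BSA; cpd 5 min RT; FRET pre-read; + RanGTP-RCC1 (0.6 uM Ran, 2 mM GTP, 0.2 uM RCC1); 45 min RT; FRET post-read, ex 430, em 486/530 nm.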
miR-21 FLuc: miR-21 reporter, rising signal. HeLa miR-21 FLuc reporter, luciferase, 48 h. Potency, µM (doses to about 38.3 µM), without a hit: at the top dose reporter change, positive = more light. 340,000 tested, under 10 active; active = well fitted rising curve with a large enough effect; inconclusive = small, poorly fitted or top-dose-only effect; inactive = no such curve, though single readings can be large or run the other way;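 also: % of control where 0% means no effect; miR-21 action dims this reporter so a rising signal means less miR-21 action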
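HeLa miR-21-FLuc reporter line, endogenous miR-21; 2000 cells/well in DMEM/10% FBS; compound titration up to ~40uM final, 48 h, 37 degree Celsius; luciferase detection reagent, 15 min lysis, CCD luminescence.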
GLA inh pH 4.5: blocks human alpha-galactosidase A at pH 4.5; activity change, negative = inhibition, % at 105 µM; 230,000 tested, under 10 active; purified enzyme, 4-MU-alpha-Gal fluorescence, pH 4.5; inconclusive = small, poorly fitted or top-dose-only inhibition, or a rising curve; inactive = flat fitted curve, though single readings scatter; no compound was filed as active;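 also: 0% = full activity with enzyme and -100% = basal without enzyme; dose as in the result columns while the protocol names 77 µM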
Target sequence (P06280 whole entry, looked up): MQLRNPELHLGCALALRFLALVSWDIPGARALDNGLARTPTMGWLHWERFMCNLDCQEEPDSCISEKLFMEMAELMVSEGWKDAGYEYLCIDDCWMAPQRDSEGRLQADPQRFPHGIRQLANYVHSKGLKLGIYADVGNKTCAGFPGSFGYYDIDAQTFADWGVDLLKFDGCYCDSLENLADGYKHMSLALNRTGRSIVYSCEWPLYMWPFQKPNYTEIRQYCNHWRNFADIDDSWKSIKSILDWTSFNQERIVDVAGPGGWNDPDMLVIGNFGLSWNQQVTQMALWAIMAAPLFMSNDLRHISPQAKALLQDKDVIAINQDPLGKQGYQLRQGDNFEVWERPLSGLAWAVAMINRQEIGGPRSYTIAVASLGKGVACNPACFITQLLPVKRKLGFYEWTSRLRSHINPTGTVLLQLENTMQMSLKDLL
Rango complex inh: Rango-importin beta binding inhibition; Q14974; Rango CFP/YFP FRET sensor + importin beta, 45 min; Potency, µM (top dose mostly 92.2 µM), inactives show at the highest dose inhibition of complex formation; actives 0.031% (n = 340,000); active = rising FRET ratio curve, often small or poorly fitted; inconclusive = mostly compound fluorescence or quenching in the first reads; inactive = flat curves in all reads;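 also: potency is read from the fitted curve at half-maximal effect; 0% = DMSO wells and 100% = buffer wells lacking importin beta; nearly all actives have a fitted effect of over 15% in size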
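FRET biosensor Rango (snurportin 1 IBB between N-terminal EYFP and C-terminal Cerulean), 50 nM in PBS/1 mM DTT/0.02% Tween-20/0.1% BSA, preincubated 5 min RT with compound; 0.125 microM importin beta added, 45 min RT, CFP/YFP FRET ratio read.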
The depositor's hits bear a star; u = inconclusive; x = not tested or not shown; & = joins results of further samples. Only part of the results is shown (hit frequency here may not be typical).

Field names: A = Rango dissoc inh; B = miR-21 FLuc; C = GLA inh pH 4.5; D = Rango complex inh
Cc1nc(C(F)(F)F)c(C(=O)N=CN(C)C)s1
  A = 6%	B = 0%	C = 7	D = 1.2%

CCN(CC)C(=O)c1ccc(S(=O)(=O)c2ccccc2)cc1
  A = -3%	B = 1%	C = x	D = -2.7%

CC(=O)N1c2ccccc2CCc2ccc([N+](=O)[O-])cc21
  A = 11%	B = 1%	C = x	D = 0.5%

CCN(Cc1nc2ccccc2c(=O)[nH]1)C(=O)COc1ccccc1Cc1ccccc1
  A = -4%	B = x	C = x	D = 5.2%

CCC(=O)Nc1ccc(/C=C(\C(C)=O)C(=O)c2ccccc2)cc1
  A = 7%	B = 25%	C = 3	D = 3.0%

CCOC(=O)C(Cc1ccccc1)NC(=O)CCCC(=O)c1ccccc1 (stereo not drawn)
  A = -2%	B = -1%	C = x	D = -0.1%

C=CCn1c(SCC(=O)c2cc(C)n(CC3CCCO3)c2C)nnc1-c1ccccc1 (stereo not drawn)
  A = 11%	B = -6%	C = -5	D = -2.8%

CN(C)CCOC(c1ccccc1)c1ccccc1 (tested in a mixture with another compound)
  A = -1%	B = -1%	C = 1&10	D = 6.6%

COc1ccc(OCC(=O)NCc2nc(-c3ccccc3)no2)cc1
  A = -3%	B = x	C = x	D = -0.9%

Cn1c(SCC(=O)Nc2ccc(Cl)cc2)nnc1C1CC1
  A = -4%	B = 5%	C = x	D = -0.6%

COc1ccccc1NC(=O)CN1C(=O)NC2(CCCc3ccccc32)C1=O (stereo not drawn)
  A = -6%	B = x	C = x	D = -8.0%

COc1cccc(CNC(=O)N2CCN(S(=O)(=O)c3ccc(C)cc3)CC2)c1
  A = 35%	B = 0%	C = x	D = -0.3%

CCOc1ccc(CCNC(=O)COC(=O)COc2ccccc2C)cc1OCC
  A = -4%	B = x	C = x	D = 1.6%

COCC(C)NC(=O)c1cc2cc(OC)ccc2[nH]1 (stereo not drawn)
  A = 2%	B = -10%	C = -4	D = 0.9%

Cc1ccc(/C=C2/NC(=O)N(c3ccccc3)C2=O)o1
  A = -14%	B = -24%	C = 0	D = u

Next structures follow:
Field names: A = Rango dissoc inh; B = miR-21 FLuc; C = GLA inh pH 4.5; D = Rango complex inh
Cc1cc([N+](=O)[O-])cc2c1NC(=O)C2(O)N1CCCC(C)C1 (stereo not drawn)
  A = -11%	B = -2%	C = x	D = 0.1%

COC(=O)CSc1nnc(CNC(=O)c2cccc(C)c2)n1-c1ccccc1OC
  A = -10%	B = -2%	C = 1	D = -6.2%

CCCCCN(C(=O)CCC(=O)OCC(=O)N1CCCCC1C)c1c(N)n(CCCC)c(=O)[nH]c1=O (stereo not drawn)
  A = -2%	B = -1%	C = x	D = 0.5%

Cc1cc(C)c(NC(N)=S)c(C)c1
  A = 8%	B = 0%	C = 3	D = 1.3%

CC(=O)OCC1=C(C(=O)OC(C)(C)C)N2C(=O)[C@@H](NC(=O)Cc3ccccc3)[C@H]2SC1
  A = 11%	B = x	C = x	D = -4.2%

COc1ccc(S(=O)(=O)Nc2ccc3cn[nH]c3c2)cc1[N+](=O)[O-]
  A = 1%	B = x	C = x	D = 1.1%

CC(=O)N1c2ccc(S(=O)(=O)NCC3CCC(C(=O)NCc4ccc(C)cc4)CC3)cc2CC1C (stereo not drawn)
  A = 3%	B = 16%	C = x	D = 0.1%

Cc1cccc(NC(=O)c2cc3c(n(-c4ccccc4)c2=O)CCCC3=O)n1
  A = -1%	B = 0%	C = 2	D = -0.7%

Cn1c(=O)c2c(nc(CN3CCN(c4ccccc4)CC3)n2CCN2CCOCC2)n(C)c1=O
  A = -9%	B = -6%	C = 4	D = 0.1%

COc1ccc(NC(=S)N(CCN(C)C)C(C)c2ccco2)cc1 (stereo not drawn)
  A = 11%	B = -6%	C = 0	D = -0.5%

Cc1ccc(C(=O)N2CCN(C3CCCCC3)CC2)s1
  A = -20%	B = -6%	C = 0	D = 7.9%

COCC(C)n1c(C)cc(C(=O)CSc2nnnn2C2CCCC2)c1C (stereo not drawn)
  A = -1%	B = x	C = x	D = -0.7%

CN1C(=O)c2ccccc2C(C(=O)O)C1c1cccc(Cl)c1 (stereo not drawn)
  A = 3%	B = -6%	C = 2	D = -4.9%

Cc1ccc(N=c2c([N+](=O)[O-])nn(-c3ccc4c(c3)OCCO4)n2O)c(Cl)c1
  A = x	B = -23%	C = -9	D = x

c1ccc(N=P(N2CCOCC2)(N2CCOCC2)N2CCOCC2)cc1
  A = 3%	B = -1%	C = 4	D = -1.4%

The final 2 records of the part before are carried over, then new ones follow:
Field names: A = Rango dissoc inh; B = miR-21 FLuc; C = GLA inh pH 4.5; D = Rango complex inh
Cc1ccc(N=c2c([N+](=O)[O-])nn(-c3ccc4c(c3)OCCO4)n2O)c(Cl)c1
  A = x	B = -23%	C = -9	D = x

c1ccc(N=P(N2CCOCC2)(N2CCOCC2)N2CCOCC2)cc1
  A = 3%	B = -1%	C = 4	D = -1.4%

O=C(CN1C(=O)C2CCCCN2C(=O)c2ccccc21)N1CCCc2ccccc21 (stereo not drawn)
  A = 0%	B = -3%	C = 9	D = 0.1%

Cc1coc(C)c1C(=O)CC1(O)C(=O)N(C)c2ccc(Cl)cc21 (stereo not drawn)
  A = 5%	B = 0%	C = -26	D = 0.8%

Cc1csc(NC(=O)c2cccc(Cn3nc(C)c(Br)c3C)c2)n1
  A = -17%	B = 6%	C = 0	D = -2.6%

CCOC(=O)c1sc(SCc2ccccc2)c2c1CC(C)(C)CC2=O
  A = 1%	B = x	C = x	D = 0.8%

CS(=O)(=O)N(CC(=O)N/N=C/c1ccccc1C(=O)O)c1cccc(Cl)c1Cl
  A = 1%	B = -9%	C = -3	D = -2.9%

O=C1c2ccccc2C(=O)N1CN(C(=O)c1ccccc1[N+](=O)[O-])c1ccc(F)cc1
  A = -2%	B = -9%	C = -17	D = -0.1%

CCOC(=O)Cn1nc(C)c(NC(=O)COc2ccc([N+](=O)[O-])cc2)c1C
  A = -14%	B = 2%	C = 2	D = -0.4%

COc1ccc(CCNc2oc(-c3ccc(OC)c(OC)c3)nc2C#N)cc1
  A = 9%	B = -22%	C = -1	D = 1.0%

CN1CCN(S(=O)(=O)c2cccc(C(=O)Nc3cc(C(F)(F)F)ccc3N3CCCC3)c2)CC1
  A = 1%	B = x	C = x	D = -2.8%

CCOC(=O)c1c(NC(=O)Cn2cnc([N+](=O)[O-])n2)sc2c1CCC(C)C2 (stereo not drawn)
  A = 3%	B = 0%	C = 2	D = 1.4%

CCOC(=O)Cn1c(CN2CCN(C(c3ccccc3)c3ccccc3)CC2)nc2c1c(=O)n(C)c(=O)n2C
  A = 31%	B = 0%	C = -11	D = 0.0%

CCOC(=O)c1c(C)oc2c1c(C(c1cccnc1)N1CCOCC1)c(O)c1ccccc12 (stereo not drawn)
  A = 2%	B = -59%	C = -2	D = -0.4%

COC(=O)CCN(C(=O)c1ccc(C)c([N+](=O)[O-])c1)c1ccccn1
  A = -4%	B = -4%	C = -7	D = 2.1%

O=C(Nc1ccccc1)N1CCn2c(nc3ccccc32)C1
  A = 5%	B = -9%	C = -4	D = 0.6%

Cc1ccc2occ(/C=N/NC(N)=S)c(=O)c2c1
  A = -10%	B = -2%	C = -9	D = 0.5%

Random excerpt: 2 records from the list
Field names: A = Rango dissoc inh; B = miR-21 FLuc; C = GLA inh pH 4.5; D = Rango complex inh
COc1ccc(S(=O)(=O)Nc2ccc3cn[nH]c3c2)cc1[N+](=O)[O-]
  A = 1%	B = x	C = x	D = 1.1%

Cc1ccc2occ(/C=N/NC(N)=S)c(=O)c2c1
  A = -10%	B = -2%	C = -9	D = 0.5%

New compounds follow.
Field names: A = Rango dissoc inh; B = miR-21 FLuc; C = GLA inh pH 4.5; D = Rango complex inh
CCOCCOC(=O)C1=C(C)N(C)C(=O)NC1c1cc(Cl)c(O)c(OCC)c1 (stereo not drawn)
  A = 1%	B = -4%	C = -12	D = 6.2%

Cn1nnnc1SCC(=O)Nc1ccc(Oc2ccccc2)cc1
  A = 1%	B = -1%	C = -1	D = 3.2%

Nc1nc(-c2ccc3c(c2)OCCO3)cs1
  A = 0%	B = -51%	C = -1	D = -2.1%

CN1CCCCC1=NCCCn1cnc2c1c(=O)n(C)c(=O)n2C
  A = -3%	B = -3%	C = 5	D = -0.2%

COc1ccc(S(=O)(=O)NCCCCCC(=O)O)cc1C(=O)O
  A = 1%	B = -2%	C = 4	D = -3.3%

COc1cccc(NC(=O)CN(C)C(=O)c2ccc(S(=O)(=O)Nc3ccccc3C)cc2)c1
  A = -1%	B = x	C = x	D = -4.1%

O=C(Cc1ccc(S(=O)(=O)N2CCOCC2)s1)N1CCN(S(=O)(=O)c2cccc(F)c2)CC1
  A = -11%	B = x	C = x	D = -1.8%

CCOC(=O)c1c(-c2ccc(OC)cc2)oc2ccc(OCC(N)=O)cc12
  A = u	B = -13%	C = x	D = -1.4%

CC(Sc1nnc(-c2ccco2)n1-c1ccccc1)C(=O)NCC1CCCO1 (stereo not drawn)
  A = -8%	B = x	C = x	D = -1.0%

C#CCn1cnc2c(cnn2-c2ccc(C)c(C)c2)c1=O
  A = -11%	B = -37%	C = 0	D = -0.6%

Cc1cc(=O)[nH]c(SCc2ccccc2)n1
  A = -4%	B = -4%	C = x	D = 3.4%

COc1cc(NC(=S)NCCN2CCOCC2)cc(OC)c1
  A = -5%	B = -1%	C = 2	D = -2.6%

CC(OC(=O)c1cc(=O)c2cc(Cl)ccc2o1)C(=O)N1CCCC1 (stereo not drawn)
  A = 1%	B = x	C = x	D = 0.1%

O=C(CCCN1C(=O)c2cccnc2C1=O)N1CC(=O)N(CCc2ccccc2)C(=O)C1
  A = -3%	B = -3%	C = 2	D = -0.1%

CN1C[C@@H]2C(c3ccc(Cl)nc3)C3(c4cccnc4)CC2(C3)[C@H]1c1ccccc1 (stereo partly drawn)
  A = 28%	B = 1%	C = -20&3	D = -2.4%

Additional compounds:
Field names: A = Rango dissoc inh; B = miR-21 FLuc; C = GLA inh pH 4.5; D = Rango complex inh
CCc1ccc(NS(=O)(=O)c2ccc3[nH]c(=O)[nH]c3c2)cc1
  A = -23%	B = -3%	C = 7	D = -1.0%

C=CCn1c(-c2ccc(N)cc2)nc2ccccc21
  A = -1%	B = -67%	C = 0	D = -3.0%

Cc1cc(N2CCOCC2)nc2cc(O)ccc12
  A = 16µM*	B = -55%	C = u	D = u

Cc1c(Cl)cccc1NC(=O)Cn1cccc1
  A = -1%	B = -4%	C = 4	D = -5.4%

Cc1ccsc1/C=N/NC(=O)CNC(=O)c1cccc([N+](=O)[O-])c1C
  A = -5%	B = 0%	C = 14	D = -3.1%

CC(C)CCNCC(O)CON=C1c2ccccc2-c2ccccc21 (stereo not drawn)
  A = -4%	B = u	C = -7	D = -0.9%

O=C(NCC1CCCO1)c1cccc(C(=O)NCC2CCCO2)c1 (stereo not drawn)
  A = 2%	B = 1%	C = x	D = -1.9%

CC(C)CNC(=O)CSc1nc2nn(-c3ccccc3)c(=O)c-2c2n1CCCCC2
  A = -2%	B = 0%	C = -1	D = -1.5%

Cc1cc2c(c(SCC(=O)NCCc3ccccc3)n1)C(=O)OC2
  A = -1%	B = 0%	C = -6	D = -0.2%

C=CCC1NS(=O)(=O)OC(COC)C1C (stereo not drawn)
  A = -10%	B = 1%	C = x	D = 0.4%

In another format: results already given.
Every second line gives: Rango dissoc inh, miR-21 FLuc, GLA inh pH 4.5, Rango complex inh
CC(C)CCNCC(O)CON=C1c2ccccc2-c2ccccc21 (stereo not drawn)
  -4%, u, -7, -0.9%
O=C(NCC1CCCO1)c1cccc(C(=O)NCC2CCCO2)c1 (stereo not drawn)
  2%, 1%, x, -1.9%
CC(C)CNC(=O)CSc1nc2nn(-c3ccccc3)c(=O)c-2c2n1CCCCC2
  -2%, 0%, -1, -1.5%
Cc1cc2c(c(SCC(=O)NCCc3ccccc3)n1)C(=O)OC2
  -1%, 0%, -6, -0.2%
C=CCC1NS(=O)(=O)OC(COC)C1C (stereo not drawn)
  -10%, 1%, x, 0.4%
